ALR inh = inhibitors of human ALR sulfhydryl oxidase, primary screen, biochemical, H2O2 detection, HRP-luminol luminescence, single point; FAD-linked sulfhydryl oxidase ALR (Homo sapiens), P55789; purified ALR, DTT oxidation; inhibition, % (concentration not given with the values); 290,000 compounds, 3.8% hits; AID 485317, 2010;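 active = mean and each replicate at 75% or more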;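 also: stock transfer was 7.5 nL into about 7.5 µL; 0% = neutral wells and 100% = wells with inactivated enzyme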
Target sequence (P55789 whole entry, looked up): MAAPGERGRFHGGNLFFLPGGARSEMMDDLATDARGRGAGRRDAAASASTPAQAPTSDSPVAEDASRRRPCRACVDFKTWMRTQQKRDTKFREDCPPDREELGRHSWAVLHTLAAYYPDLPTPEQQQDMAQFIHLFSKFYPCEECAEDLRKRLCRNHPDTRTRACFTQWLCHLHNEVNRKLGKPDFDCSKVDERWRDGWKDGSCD
LANA-H2A inh = blockers of LANA interaction with H2A/H2B – biochemical, FP readout, HTS, primary screen; inhibition, % (concentration not given with the values); 320,000 compounds, 0.6% hits; cell-free LANA-H2A/H2B peptide, fluorescence polarization; AID 2629, 2010; Protein LANA1 (Human herpesvirus 8 type P (isolate GK18)), Q9QR71; in the data active = inhibition mostly above about 10%, no sharp cut-off; inactive = mostly below about 6.7%;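 also: stock transfer was 7.5 nL into about 10 µL; 0% = median of vehicle wells and 100% = median of positive control wells; one replicate is shown; the record names a cut of 25% in any replicate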
A1 inh = caspase 3/7 activation in MEF A1-2A-BIM cells, primary screen, A1 inhibitor project, cell-based, luminescence, HTS. caspase activation, % (no concentration beside the values). 330,000 compounds, 0.066% hits. Caspase-Glo 3/7 luminescence, 3 h; percent of clofoctol response, vehicle zero;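 active = over half of replicate activation scores above 10%, or exactly half above 10 with the replicate mean above 10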;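 also: wells of about 30 µL received 50 nL stock; many hits fall short of the cut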
B2AR ag = beta2AR agonists driving receptor internalization, primary screen, cell-based, FAP fluorogen, flow cytometry; Am2.2-beta2AR cells; reference of the scale not given here; Beta-2 adrenergic receptor (Homo sapiens), P07550; 340,000 compounds, 0.43% hits; response, % (no concentration beside the values);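 active = response above a set limit, near 3 SD of response in nonfluorescent compounds, cut at about 42% in these data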;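 also: stock transfer was 100 nL into about 11 µL; a reference agonist was the positive control; negative values mostly stem from fluorescent compounds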
Target sequence (P07550 whole entry, looked up): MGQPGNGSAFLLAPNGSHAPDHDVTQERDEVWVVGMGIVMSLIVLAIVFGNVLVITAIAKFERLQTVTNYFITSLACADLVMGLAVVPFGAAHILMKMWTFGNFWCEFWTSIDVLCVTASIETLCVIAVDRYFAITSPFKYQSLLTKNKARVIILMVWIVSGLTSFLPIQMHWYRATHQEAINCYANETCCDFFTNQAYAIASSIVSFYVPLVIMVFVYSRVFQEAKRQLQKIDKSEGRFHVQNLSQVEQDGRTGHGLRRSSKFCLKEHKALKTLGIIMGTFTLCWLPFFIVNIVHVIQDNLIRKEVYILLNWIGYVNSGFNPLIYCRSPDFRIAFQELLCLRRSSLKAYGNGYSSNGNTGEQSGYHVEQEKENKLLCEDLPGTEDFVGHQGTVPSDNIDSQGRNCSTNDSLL
Calb FLC = C. albicans growth inhibition with fluconazole, primary screen, CaCi-2 strain, Alamar Blue fluorescence | C. albicans CaCi-2 (fluconazole-resistant clinical isolate) + fluconazole, 48 h | growth inhibition, % (concentration not given with the values) | 300,000 compounds, 0.57% hits | AID 1979, 2009;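 active = most replicates above 75%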;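 also: all wells also contain fluconazole at 8 µg/ml as a sub-toxic cotreatment; 0% = median of DMSO wells and 100% = median of geldanamycin control wells; wells of about 8 µL received 7.5 nL stock; the first replicate is given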
T cruzi inh = inhibitors of intracellular T. cruzi growth, primary screen, luminescence, NIH3T3 host cells; T. cruzi beta-gal in NIH3T3, 90 h; 300,000 compounds, 1.4% hits; inhibition, % (no concentration beside the values);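 active = mean inhibition across valid replicates above about 55%, limit read from the data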;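 also: signal also drops with host cell toxicity which is not excluded here; 0% = plate median of DMSO wells and 100% = zero luminescence signal; higher percent means less beta-gal luminescence so fewer parasites; stock transfer was 50 nL into about 50 µL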
Ecoli rRNA inh = reduced GFP signal of wild-type E. coli, primary screen, bacterial rRNA inhibitor project, GFP/RFP fluorescence, OD600, single point | E. coli WT GFP vs humanized-ribosome RFP mutants, 24 h; stronger effect = lower value; DMSO median 0, no signal -100 | GFP signal change (wild-type ribosome), % (test concentration not listed) | 350,000 compounds, 1.6% hits | AID 720706, 2013;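 active = significant combined selectivity score with lowered wild-type GFP, culture density cut under 30%, mutant RFP and density less affected; inactive = any of these conditions unmet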; also: one replicate is shown; some compounds called inactive have numbers as strong as hits
Beta apoptosis = inhibitors of cytokine-induced beta cell apoptosis, primary screen, luminescence. INS-1E cytokine-induced death, ATP luminescence, 48 h; percent of positive-control rescue, neutral wells zero. 300,000 compounds, 0.8% hits. protection from apoptosis, % (concentration not given with the values);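 active = all replicates at 75% or more, or half of them and the mean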;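 also: 0% = cytokine-treated negative control wells and 100% = positive control rescue; higher means more ATP so stronger rescue from cytokine killing; wells of about 40 µL received 100 nL stock; the first replicate is given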
Ecoli rRNA inh OD600 = recorded beside Ecoli rRNA inh, whose call it bears; OD600 change, %; measured here: OD600 growth;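 optical density of the mix in the first replicate; 0 = DMSO median and -100 = no signal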
Ecoli rRNA inh RFP = second read-out of Ecoli rRNA inh, no call of its own (marks repeat the call); RFP signal change, %; measured here: RFP humanized mutant strains;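 first replicate; 0 = DMSO median and -100 = no signal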
* marks the source's active call; other numbers are inactive results; . = not tested or not shown.

SMILES	ALR inh	LANA-H2A inh	A1 inh	B2AR ag	Calb FLC	T cruzi inh	Ecoli rRNA inh	Ecoli rRNA inh OD600	Ecoli rRNA inh RFP	Beta apoptosis
COc1ccccc1N1CCN(C(=O)CN(Cc2ccccc2)S(C)(=O)=O)CC1	0	8.8	0.5	-1	-1	-6	-12	-10	9.2	-2
O=C(/C=C/c1ccc2c(c1)OCO2)NCCS(=O)(=O)N1CCN(c2ccc(F)cc2)CC1	-1	-0.8	1.0	-6	-3	-12	6	8	-2.6	-4
COC(=O)[C@@H](Cc1ccccc1)N(Cc1ccccc1)S(=O)(=O)N(Cc1ccccc1)[C@H](Cc1ccccc1)C(=O)OC	5	7.2	1.1	3	.	.	9	17	-4.4	119*
CCOC(=O)N1CCN(c2c(-c3ccc(C)cc3)c(=O)c2=O)CC1	50	-1.7	-0.1	6	20	-4	.	.	.	-8
CCOc1ccc(N(CC(=O)N2CCCC2)S(=O)(=O)c2ccc(F)cc2)cc1	0	0.3	0.2	-11	5	-2	1	8	-0.7	-6
O=C(/C=C\c1ccc2c(c1)OCO2)Nc1nnc(SCC(=O)OCc2ccccc2)s1	-4	-0.8	-1.0	.	-5	-14	19	11	3.0	0
O=C(NCc1ccccc1)[C@@H]1C[C@H]1[C@@H](NP(=O)(c1ccccc1)c1ccccc1)c1ccccc1	-4	-3.4	1.9	2	1	-13	-2	12	-3.7	1
COC(=O)C1CCN(C(=O)[C@H](C)NC(=O)C2CC(=O)N(c3ccc(F)cc3)C2)CC1 (stereo partly drawn)	-1	-3.3	-0.4	-2	-6	1	27	14	0.3	-4
O=C(/C=C/c1ccccc1)NC1CC2CCCC(C1)N2Cc1ccccc1 (stereo not drawn)	-8	-4.4	0.1	.	-4	7	.	.	.	3
O=C(CSc1nnc(-c2ccccc2)n1-c1ccc(Cl)cc1)NC1CCS(=O)(=O)C1 (stereo not drawn)	0	1.6	0.0	-5	9	1	-6	6	-8.9	-7
CC(=O)Oc1ccc(OC(C)=O)c(SCCCCCCl)c1	.	.	.	5	2	25	0	-1	0.8	.
Cc1ccnc(NC(=O)c2ccc(NC(=O)c3ccco3)cc2)c1	1	4.5	-4.5	-6	-3	4	.	.	.	6
COc1ccc(S(=O)(=O)N2CN(Cc3ccco3)c3nc4ccccc4nc32)cc1	-3	-2.9	0.9	-1	22	-16	.	.	.	-9
CC(C)(C)C(=O)Nc1nnc(SCC(=O)NCc2cccs2)s1	-12	4.9	0.2	-5	-3	-12	.	.	.	1
CN1CCN(c2oc(-c3ccccc3Cl)nc2S(=O)(=O)c2ccccc2)CC1	2	0.4	0.4	2	-34	22	-4	-18	1.4	.
CN1CCN(C(=O)COCc2cc(-c3ccc4c(c3)OCO4)on2)CC1	0	0.4	1.8	3	0	5	10	8	2.1	0
c1ccc2c(CSCCc3ccncc3)cccc2c1	100*	-1.2	0.0	7	0	21	.	.	.	5
O=C(NCCOc1ccc(F)cc1)C1CCC(=O)N(CCCN2CCOCC2)C1 (stereo not drawn)	-2	0.8	0.9	-2	2	-14	4	17	1.0	.
OCCC1CN(Cc2nc(-c3ccccc3)cs2)CCN1Cc1ccc(F)cc1 (stereo not drawn)	-8	-1.3	0.6	-1	-6	32	.	.	.	2
O=C(COc1ccc(Cl)cc1)NCc1n[nH]c(=O)c2ccccc12	-7	-3.2	1.1	-12	2	-6	-10	-1	-0.3	.
CCOc1cc(NC(=S)NCCCN2CCOCC2)c(OCC)cc1NC(=O)C1CC1	-3	-0.1	0.6	3	-16	3	.	.	.	.
O=C(NC(=S)Nc1ccccc1)c1cc([N+](=O)[O-])ccc1N1CCOCC1	-13	-2.6	-0.8	-28	-5	14	2	-4	1.0	4
CC1=Nn2c(nnc2C2CCCCC2)SC1	-17	-0.7	-0.2	6	-4	-19	.	.	.	-2
CCOc1ccc(-n2c(SCC(N)=O)nc3c(c2=O)SCC3)cc1	-5	1.9	0.0	-3	-6	-7	.	.	.	1
CCCCS(=O)(=O)C(=C1Nc2ccccc2N1)S(=O)(=O)CCCC	19	3.5	0.9	0	-2	-2	.	.	.	-3
O=c1c2ccccc2c(-c2ccccc2)nn1-c1ccccn1	1	0.6	0.2	-21	9	-16	2	1	-1.3	.
O=C1CCC(=O)N1c1ccc(S(=O)(=O)Nc2ccc(Br)cc2)cc1	5	-4.0	-0.1	6	0	-5	0	-16	-0.7	-6
CN1CCN(c2nc(-c3cccnc3)nc3scc(-c4ccccc4)c23)CC1	0	0.7	0.5	2	-29	10	-22*	-12*	2.2*	-11
O=C(CN(c1ccc(F)cc1)S(=O)(=O)c1ccccc1)NCc1ccco1	1	1.1	1.3	5	-10	6	.	.	.	-5
Cc1ccc(CNC(=O)CCN2C(=O)[C@@H]3Cc4ccccc4CN3C2=O)cc1	-2	0.9	-1.3	3	7	-5	3	1	1.5	-6
CC(=O)c1cc(CN2CCC(C(=O)Nc3cccc(-c4cscn4)c3)CC2)cs1	-2	5.1	-0.1	13	0	17	1	7	-0.8	-13
CC(NC(=O)c1ccc([N+](=O)[O-])cc1Cl)C1CC2CCC1C2 (stereo not drawn)	-7	-1.9	2.3	-16	-15	10	-13	-2	2.2	.
CCOc1ccc(NC(=S)N(CCc2c(C)[nH]c3ccccc23)Cc2ccco2)cc1	.	-2.2	0.0	1	-3	15	6	7	9.2	-2
COc1ccc(-c2nnc(-c3cc4c(ccc5ccccc54)oc3=O)o2)cc1	13	4.9	0.7	-1	7	3	.	.	.	0
CCOc1ccc(C(C)NC(=O)c2cccnc2OCC)cc1OCC (stereo not drawn)	-4	0.1	1.1	-3	26	0	10	5	1.8	.
COc1ccc(CNC(=O)C(NC(C)=O)C(=O)Nc2ccc(C(C)C)cc2)cc1 (stereo not drawn)	-4	4.8	0.0	0	42	12	.	.	.	-1
Cc1ccc2nc(NC(=O)C3CCN(S(=O)(=O)c4cnc[nH]4)CC3)sc2c1	51	3.1	0.3	1	-5	-3	.	.	.	-4
CC(C)(C)CN1CCNC[C@H]1Cc1cccc2ccccc12	-59	-3.2	-0.2	14	12	7	-52	-77	-24	-1
Cc1cccc(NC(=S)NCCc2ccccc2)c1C	-2	1.8	0.0	-1	-11	1	-25	-37	-14	4
COc1ccc(NC(=O)c2cccs2)cn1	1	-3.4	-2.3	-9	2	4	10	6	-1.7	-3
CN(CC(=O)Nc1ccc(Cl)c(C(F)(F)F)c1)C(=O)c1cc(=O)[nH]c2ccccc12	.	3.2	0.3	1	2	3	-31	-57	2.0	-17
CCOc1ccc(NC(=O)CCNS(=O)(=O)c2ccc3c(c2)c(=O)n(C)c(=O)n3C)cc1	12	-2.4	-0.2	2	-5	-3	15	2	0.5	5
CC(=O)c1ccc(N2CCN(CC(O)COCc3ccco3)CC2)cc1 (stereo not drawn)	-6	-0.9	1.4	-10	-20	7	5	3	-0.3	0
Cn1c(=O)c2c(ncn2CCN(CCO)Cc2ccccc2)n(C)c1=O	-10	9.4	0.1	10	-8	-1	.	.	.	2
O=C(NCCCN1CCCC1=O)c1cccc(NS(=O)(=O)c2ccc(Br)cc2)c1	-2	6.2	-0.2	-5	-4	-3	0	-1	-0.9	4
C#CCNC(=O)/C=C/c1ccc(OC)cc1	2	-1.4	-4.4	0	-13	-11	4	1	1.0	-3
CCN1C(=O)/C(=C2\SC(=S)N(CCCOC)C2=O)c2ccccc21	5	1.1	-0.3	4	0	-28	.	.	.	3
CCCCN1C2=C(C(=O)CC(C)(C)C2)C(c2ccccc2)C2=C1c1ccccc1C2=O (stereo not drawn)	-3	-2.5	-0.5	-2	-4	36	.	.	.	-3
Cc1ccc(NC(=S)Nn2cnnc2)cc1	7	-2.1	0.1	-1	-22	1	1	4	2.7	-2
NS(=O)(=O)c1ccc2c(c1)C1C=CCC1C(C1CC=CCC1)N2 (stereo not drawn)	-30	5.6	0.0	8	-4	27	.	.	.	1

(further entries)
SMILES	ALR inh	LANA-H2A inh	A1 inh	B2AR ag	Calb FLC	T cruzi inh	Ecoli rRNA inh	Ecoli rRNA inh OD600	Ecoli rRNA inh RFP	Beta apoptosis
Cc1ccc(NCc2nnc(SCCN3CCCCC3)n2CC2CCCO2)c(C)c1 (stereo not drawn)	73	0.6	0.3	2	6	7	.	.	.	.
COc1cc(C(=O)Nc2nc3ccccc3s2)ccc1OCc1c(C)noc1C	-3	-21	-0.8	53*	2	25	.	.	.	15
O=C(CN1CCN(Cc2ccccc2)CC1)N/N=C/c1ccco1	-4	-0.5	-0.3	4	-7	2	19	3	-0.2	-3
Clc1ccc(-c2nnc(COc3ncnc4ccccc34)o2)cc1	.	-1.0	0.0	-9	-5	-10	12	0	3.1	37
Cc1ccccc1OCC(=O)N(Cc1ccc(N(C)C)cc1)C1CCS(=O)(=O)C1 (stereo not drawn)	33	0.0	0.3	1	-19	5	.	.	.	0
O=C1c2ccccc2C(=O)N1CCCCSc1nnnn1-c1ccccc1	-13	3.8	2.3	-6	12	2	.	.	.	0
COC(=O)c1[nH]c2ccccc2c1NC(=O)CN1CCN(c2cccc(Cl)c2)CC1	0	-2.0	2.5	10	6	29	.	.	.	16
O=[N+]([O-])c1ccc(NCCc2ccccc2)c(Br)c1	-1	-2.5	1.3	-3	-35	-1	-12	-24	-3.6	-2
CCCCC(CC)CNC(=O)C1C2C=CC(C2)C1C(=O)O (stereo not drawn)	3	-3.0	0.7	-2	-20	0	.	.	.	-12
O=C(c1ccc2c(c1)OCO2)N(c1ccc(F)cc1)C1C=CS(=O)(=O)C1 (stereo not drawn)	1	6.6	0.0	-1	-2	-6	.	.	.	-4
CCOC(=O)c1cc(-c2ccccc2)nn1CC1CC(c2ccc(OC)cc2)=NO1 (stereo not drawn)	1	-1.4	-0.1	-7	.	.	-12	-5	-5.0	0
COC(=O)c1cc(S(=O)(=O)N2c3ccccc3CC2C)cn1C (stereo not drawn)	4	-3.5	-0.6	7	3	3	-16	-23	-2.0	0
Cc1c(Cl)cnc(NC(=O)CSc2nnnn2C)c1Cl	-4	5.3	-1.1	-5	.	.	1	11	-2.3	-4
Cc1cnc(NC(=O)COc2ccc3c(c2)CCC3)s1	-5	-1.2	0.3	-5	-2	-12	-4	0	-4.0	-16
C/C(N)=C(/C#N)C(=O)CSc1nnc(-c2ccc3c(c2)OCO3)o1	-3	-1.6	-1.9	-4	16	0	6	6	1.2	-2
O=C(Cn1cnc2c(nnn2Cc2ccc(F)cc2)c1=O)NCc1ccc(F)cc1	-6	-6.6	0.0	-7	-18	3	7	5	-0.6	-8

Compound activity from PubChem.

This is a subset (hit frequency here may not be typical).
